Marburg entry inh: qHTS for inhibitors of binding or entry into cells for Marburg Virus; 300,000 tested, 1.8% active; Marburg virus pseudotyped entry inhibition, cell reporter; control for the full effect not named in the record; about a third of the inactives were read at about 46 µM; Potency, µM (highest dose often 37.8 µM), for the others: top-dose activity change, negative = inhibition, hits mostly inhibitors; active = well fitted inhibition curve with a large enough effect; inconclusive = small, poorly fitted or top-dose-only effect, or effect the other way; inactive = flat fitted curve, though single readings scatter; tested in HEK293 cells; about a fifth of its hits are not listed in these tables; note: % is set by controls: 0 for no effect and ±100 for the full control effect; luciferase read-out
NS1 function inh: qHTS Assay for Inhibitors of Influenza NS1 Protein Function. Potency, µM (highest dose often 46.1 µM), without a hit: top-dose activity, positive = more growth. S. cerevisiae slowed by influenza A NS1, growth recovery by OD600. 270,000 tested, 0.4% active; active means well fitted rising curve with a large enough effect; inconclusive means small, poorly fitted or top-dose-only effect; inactive means no such curve, though single readings can be large or run the other way; note: nearly all actives have a fitted effect of over 50% in size
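A cell-based growth assay was used: compounds that relieve NS1-induced slow growth of budding yeast raise OD600. Assay medium was yeast nitrogen base with ammonium sulphate and -URA supplement, pH 6.0, with 2% galactose.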
RE007 growth inh: qHTS Assay for Inhibitors of the HIV-1 protein Vpr; S. pombe RE007 Vpr strain, BacTiter-Glo ATP luminescence, 24 h; control for the full effect not named in the record; Potency, µM (doses to about 92.2 µM), for the others: at the highest dose activity change, negative = less growth; 360,000 tested, 0.21% active; AID 651644, 2012; active = well fitted falling curve with a large enough effect; inconclusive = small, poorly fitted or top-dose-only effect; inactive = no such curve, though single readings can be large or run the other way;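 note: % is set by controls: 0 for no effect and ±100 for the full control effect; nearly all actives have a fitted effect of over 50% in size; the assay follows cell death caused by Vpr and the record does not say whether a fall means rescue or toxicity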
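Fission yeast strain RE007, carrying one chromosomally integrated HIV-1 vpr copy, was seeded at OD 0.01 in PMG+AL medium with 23 nL pinned compound. After 24 h at 30 °C and 99% humidity, viability was read by BacTiter-Glo luminescence.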
SARS PLpro yeast: qHTS of Yeast-based Assay for SARS-CoV PLP. S. cerevisiae expressing SARS-CoV PLpro, growth rescue; control for the full effect not named in the record. Potency, µM (top dose mostly 32.9 µM), inactives show at the top dose activity, positive = growth rescue. 330,000 tested, 0.19% active; active means well fitted rising curve with a large enough effect; inconclusive means small, poorly fitted or top-dose-only effect; inactive means no such curve, though single readings can be large or run the other way; note: 0% is about no effect; nearly all actives have a fitted effect of over 55% in size; growth read by luminescence after 48 h
Lassa entry inh: qHTS for Inhibitors of binding or entry into cells for Lassa Virus | Lassa virus pseudotype entry inhibition, cell reporter; control for the full effect not named in the record | Potency, µM (series often up to 37.9 µM), for inactives: at the highest dose activity change, negative = inhibition, hits mostly inhibitors | 300,000 tested, 1.2% active | AID 540256, 2011; active means well fitted inhibition curve with a large enough effect; inconclusive means small, poorly fitted or top-dose-only effect, or effect the other way; inactive means flat fitted curve, though single readings scatter; tested in HEK293 cells; note: % is set by controls: 0 for no effect and ±100 for the full control effect; nearly all actives have a fitted effect of over 50% in size; luciferase read-out
StopGo reporter: High Throughput Screening for Foot and Mouth Disease Virus Antivirals | Potency, µM (highest dose often 57.9 µM), for inactives: top-dose signal change, negative = less light | human cells with a luciferase reporter of 2A StopGo recoding; control for the full effect not named in the record | AID 1159524, 2015 | 410,000 tested, 1.2% active; active = well fitted falling curve with a large enough effect; inconclusive = small, poorly fitted or top-dose-only effect; inactive = no such curve, though single readings can be large or run the other way; tested in HEK293T cells; note: % is set by controls: 0 for no effect and ±100 for the full control effect; nearly all actives have a fitted effect of over 45% in size; luciferase light after 4 h
Cruzain inh noDet: qHTS Assay for Promiscuous and Specific Inhibitors of Cruzain (without detergent). 200,000 tested, 2.3% active. purified cruzain, Z-FR-AMC fluorescence, no detergent. Potency, µM, for the others: max response, negative = inhibition, most hits filed as inhibitors. Cruzipain (Trypanosoma cruzi), P25779;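 note: plate controls were enzyme without inhibitor for no effect and buffer without enzyme for full effect; nearly all actives have a fitted effect of over 40% in size; top concentration of the series not given in the record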
Target sequence (P25779 123-467 limits assumed): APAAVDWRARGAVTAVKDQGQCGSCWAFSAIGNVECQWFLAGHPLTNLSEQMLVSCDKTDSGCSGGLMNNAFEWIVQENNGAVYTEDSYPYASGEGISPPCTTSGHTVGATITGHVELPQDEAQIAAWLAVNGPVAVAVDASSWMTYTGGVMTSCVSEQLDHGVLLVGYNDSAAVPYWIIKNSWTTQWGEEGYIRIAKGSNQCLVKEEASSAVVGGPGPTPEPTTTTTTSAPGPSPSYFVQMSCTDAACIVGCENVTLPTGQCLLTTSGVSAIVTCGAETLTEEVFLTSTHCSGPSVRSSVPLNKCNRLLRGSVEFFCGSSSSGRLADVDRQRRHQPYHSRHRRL
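Detergent-free condition (0.00005% Triton X-100) in acetate buffer pH 5.5 with DTT. 1.5 nM enzyme and compound were pre-mixed 15 min, then 2 uM Z-FR-AMC substrate added; reaction progress from fluorescence change between first and third reads (60 s).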
Cruzain Triton: qHTS Assay for Promiscuous and Specific Inhibitors of Cruzain (with detergent). AID 1478, 2009. Potency, µM, for inactives: max response, negative = inhibition, usual class: inhibitors. purified cruzain, Z-FR-AMC fluorescence, 0.01% Triton. 200,000 tested, 0.43% active. Cruzipain (Trypanosoma cruzi), P25779;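 note: plate controls were neutral wells for no effect and buffer without enzyme for full effect; nearly all actives have a fitted effect of over 40% in size; top concentration of the series not given in the record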
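Cruzain (1.5 nM) preincubated 15 min at RT with compound in 100 mM sodium acetate pH 5.5, 5 mM DTT, 0.01% Triton X-100. Reaction started with 2 uM Z-FR-AMC; AMC fluorescence (ex 360/em 450 nm) change over 60 s gave rate.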
* = called active by the depositor; u = inconclusive; x = not tested or not shown; & = joins results of further samples; [ ] = dose if it differs, or a comment. Unless noted, calls come from the whole dose curve; as a rule, active = well fitted curve in the direction sought with a large enough effect; inconclusive = small, poorly fitted or top-dose-only effect, or another doubt; inactive = no such curve, though single readings can be large; an effect the other way counts as inactive or inconclusive. Potency is the fitted concentration of half-maximal effect.

Molecule,Marburg entry inh,NS1 function inh,RE007 growth inh,SARS PLpro yeast,Lassa entry inh,StopGo reporter,Cruzain inh noDet,Cruzain Triton
Cc1ccc(-n2nc3c(c2NC(=O)c2c(-c4ccccc4Cl)noc2C)CS(=O)(=O)C3)c(C)c1,-21%,-16%,-7%,7%,u,-20%,8%,2.7%
O=C(CN1CCN(CC(=O)Nc2ccc(-c3ccccc3)cc2)CC1)Nc1ccc(F)cc1,9%[46.1 µM],-6%,12%,1%,0%[46.1 µM],-10%,x,x
CC1CCCC(NC(=O)COC(=O)/C=C/c2ccc([N+](=O)[O-])cc2)C1C (stereo not given),-2%,x,-6%,-1%,18%,-17%,x,x
O=C(CNC(=O)c1ccccc1)OCc1nnc(-c2ccccc2)o1,3%,x,-8%,-1%,0%,19%,x,x
CCCC(=O)Nc1ccc(NC(=O)CCc2ccccc2)cn1,14%,-1%,-17%,-1%,-6%,15%,-2%,1.0%
COC(=O)c1sccc1S(=O)(=O)N(CC(=O)NCc1ccc(C)cc1)c1ccccc1,x,x,x,x,-11%[46.1 µM],-5%,10%,-3.3%
NS(=O)(=O)c1ccc(CCNC(=O)C(c2ccccc2)c2ccccc2)cc1,-6%[46.1 µM],-16%,-16%,1%,-18%[46.1 µM],-12%,x,x
CC(=O)c1cccc(Nc2nc(-c3sc(C)nc3C)cs2)c1,u,-14%,1%,-7%,u,u,x,x
Cc1ccc(NC(=S)N2CCCC2)cc1,x,-1%,-15%,0%,x,51%[activator],x,x
COc1ccccc1NC(=O)C(C)OC(=O)C(C)SCC(=O)Nc1ccc(C)cc1 (stereo not given),29%,x,-11%,6%,2%,-4%,x,x
O=C(CSc1ncnc2ccccc12)c1ccco1,11%,4%,-13%,0%,3%,-22%,x,x
Cc1cccc(NC(=O)/C=C/c2ccc3c(c2)OCO3)n1,6.5µM*,-17%,-7%,-25%,u,-69%,0%,-12%
Cc1cccc(CNC(=O)C2CCC(=O)N(C3CCCC3)C2)c1 (stereo not given),-1%,9%,2%,-4%,-1%,-8%,x,x
O=C(c1ccc(C(F)(F)F)n(Cc2ccc(Cl)cc2)c1=O)N1CCOCC1,x,6%,12%,2%,x,u,x,x
OC[C@@H]1[C@@H](c2ccccc2)C(c2ccc(F)cc2)=NN1c1ccccc1,x,x,3%,-60%,x,u,u,-9.6%
CCCNC(=O)c1ccccc1NC(=O)c1ccc2c(c1)NC(=O)C(C)S2 (stereo not given),x,-15%,8%,-7%,x,-14%,x,x
COc1cc(/C=C2\SC(=S)N(NC(=O)c3ccc(O)cc3)C2=O)ccc1O,u,10%,-7%,1%,u,10%,x,x
Cc1cccc(C)c1NC(=O)CSc1nccn1C,-11%[46.1 µM],x,x,x,-15%[46.1 µM],-14%,-1%,-0.3%
CC(C)CN(C(=O)CN1CCN(c2ccc(O)cc2)CC1)c1c(N)n(CC(C)C)c(=O)[nH]c1=O,u,12%,12%,15%,14%,-6%,8%,-2.5%
COc1ccc(NC(=S)N2CCN(C(=O)C3CCCO3)CC2)c(OC)c1 (stereo not given),8%,18%,16%,11%,6%,0%,-7%,-1.6%
COc1ccc(OC)c(NC(=O)c2ccc(OCC(=O)N3CCOCC3)c(OC)c2)c1,12%[46.1 µM],x,17%,-3%,-1%,-11%,x,x
CS(=O)(=O)N1CCC(Oc2ccccc2C(=O)N2CCC[C@H]2CO)CC1,6%[46.1 µM],5%,8%,-7%,24%[46.1 µM],-1%,x,x
CC(C)CCNC(=O)c1ccccc1NC(=O)C1=CSCCO1,x,-23%,10%,-3%,x,21%,x,x
C=CCNc1cc(C)oc(=O)c1C(=O)CC,9%[46.1 µM],x,2%,0%,0%,-13%,x,x
Nc1ccc(C(=O)OCCCc2nc3ccccc3[nH]2)cc1,-4%&-4%,9%,-1%,1%,0%,0%,-16%,0.7%
Cc1ccc(C)c(OCC(=O)NC2CCCCCC2)c1,u,-30%,4%,5%,1%,1%,x,x
COc1ccc(C2CC(=O)NC3=C2C(=O)CCC3)cc1Cl (stereo not given),16%,8%,12%,-4%,-13%,u,9%,4.3%
CCOC(=O)N1CCN(c2ccc(Cl)c(Cl)c2)CC1,-2%,-54%,-21%,-17%,9%,-24%,15%,-7.0%
Cc1cc(=O)n(CC(=O)NCc2ccc(OC(C)C)cc2)c2c1c(C)nn2-c1cccc(F)c1,x,x,x,x,-2%[46.1 µM],-10%,-5%,-2.8%
c1ccc(CN2CCOCCOCCOCCOCC2)cc1,-11%[46.1 µM],-2%,3%,-1%,-18%,7%,x,x

Overlap with the part before: 2 entries; new compounds follow.
Molecule,Marburg entry inh,NS1 function inh,RE007 growth inh,SARS PLpro yeast,Lassa entry inh,StopGo reporter,Cruzain inh noDet,Cruzain Triton
Cc1cc(=O)n(CC(=O)NCc2ccc(OC(C)C)cc2)c2c1c(C)nn2-c1cccc(F)c1,x,x,x,x,-2%[46.1 µM],-10%,-5%,-2.8%
c1ccc(CN2CCOCCOCCOCCOCC2)cc1,-11%[46.1 µM],-2%,3%,-1%,-18%,7%,x,x
O=C(CCn1cncn1)N1CCCC(N2CCN(c3cccc(C(F)(F)F)c3)CC2)C1 (stereo not given),18%,2%,10%,3%,12%,-13%,x,x
C=CCSC1=N/C(=C\C=C\c2ccco2)C(=O)S1,-11%,-117%,-6%,-3%,-24%,24%,-28%,-14%
O=C(N/N=C\c1ccncc1)c1ccc(Br)s1,u,-33%,12%,-1%,0%[46.1 µM],31%[activator],x,x
COc1cccc(CNc2ccccc2O)c1OCc1ccccc1F,2%[46.1 µM],x,u,-4%,u,-18%,x,x
Cc1oc(=O)c(NC(=O)c2ccc(Cl)cc2)cc1C(=O)c1ccccc1,u,-97%,28µM*,-29%,23µM*,u,2µM*,2.5µM*
COc1cccc(C(=O)N2CCN(C(=O)COc3ccc4ccccc4c3)CC2)c1,10%[46.1 µM],0%,-3%,1%,x,u,x,x
CC(C(O)c1ccccc1)N(C)CCn1cnc2c1c(=O)n(C)c(=O)n2C (stereo not given),-7%[46.1 µM],-2%,8%,-1%,-13%,-7%,x,x
O=C(CN1CCCN(Cc2ccc(Cl)cc2)S1(=O)=O)Nc1ccccc1F,x,x,x,x,0%[46.1 µM],-10%,4%,-8.3%
COc1ccccc1CNS(=O)(=O)c1ccc2c(c1)CC(=O)N2C,16%&16%[46.1 µM],9%,6%,1%,-26%&6%[46.1 µM],13%&2%,x,x
CC(=O)c1ccc(OCC(=O)NCC2(N3CCCCC3)CCCCC2)cc1,x,1%,-2%,0%,x,-26%,x,x
Cc1ccccc1S(=O)(=O)Nc1nc2ccccc2nc1NCCO,3%,17%,-2%,-7%,18%,30%,-15%,-4.9%
CC1(C)NC(=O)N(CC(O)COc2ccc(-c3ccc(C#N)cc3)cc2)C1=O (stereo not given),-3%,-1%,-7%,1%,-18%,u,10%,-1.6%
Cc1cc(=O)oc2cc(OCC(=O)NCCN3CCOCC3)ccc12,5%[46.1 µM],9%,6%,1%,11%[46.1 µM],-2%,x,x
O=C(Nc1ccc(N2CCN(C(=O)c3cccs3)CC2)cc1)c1ccco1,19%[46.1 µM],5%,26%,-4%,x,7%,x,x
CC(=O)Nc1c(C)ccc(CNC(=O)COc2ccc(F)cc2)c1C,-1%[46.1 µM],x,1%,0%,8%[46.1 µM],37%[activator],x,x
Cc1cccc(NC(=O)CN2C(=O)S/C(=C\c3ccc(-c4cccc(C(=O)O)c4C)o3)C2=O)c1,-11%[46.1 µM],x,-4%,-4%,-29%[46.1 µM],-5%,x,x
CCCSC1=N/C(=C/c2ccsc2)C(=O)N1c1ccccc1,8%,-8%,5%,-1%,-6%,-11%,-3%,-7.7%
Cc1ccc(C2N(c3ccc(Cl)c(Cl)c3)C(=O)C3CCCN32)o1 (stereo not given),-16%,-8%,-21%,-1%,9%,-10%,-7%,-2.5%
COc1ccccc1C(=O)N(CCC1CCCN1C)c1nc2ccccc2s1 (stereo not given),u,-2%,-8%,-1%,u,u,x,x
CCCCCCn1c(NCC)nc2c1c(=O)[nH]c(=O)n2C,1%,-4%,-8%,1%,1%,-22%,-7%,1.7%
CC(=O)Cn1ncc(N2CCOCC2)cc1=O,x,6%,4%,1%,x,-7%,x,x

Of the compounds above, these contain a thiophene ring, fused or not.
Molecule,Marburg entry inh,NS1 function inh,RE007 growth inh,SARS PLpro yeast,Lassa entry inh,StopGo reporter,Cruzain inh noDet,Cruzain Triton
COC(=O)c1sccc1S(=O)(=O)N(CC(=O)NCc1ccc(C)cc1)c1ccccc1,x,x,x,x,-11%[46.1 µM],-5%,10%,-3.3%
O=C(N/N=C\c1ccncc1)c1ccc(Br)s1,u,-33%,12%,-1%,0%[46.1 µM],31%[activator],x,x
O=C(Nc1ccc(N2CCN(C(=O)c3cccs3)CC2)cc1)c1ccco1,19%[46.1 µM],5%,26%,-4%,x,7%,x,x
CCCSC1=N/C(=C/c2ccsc2)C(=O)N1c1ccccc1,8%,-8%,5%,-1%,-6%,-11%,-3%,-7.7%

Screens: PubChem BioAssay, National Center for Advancing Translational Sciences (NCATS)
